VDR inh: blocks the human vitamin D receptor. P11473. 400,000 compounds, 0.93% hits. Potency, µM, for the others: max response, negative = inhibition, actives largely listed as inhibitors. VDR-SRC2-3 peptide fluorescence polarization, 2 h; active = well fitted inhibition curve with a large enough effect; inconclusive = small, poorly fitted or top-dose-only effect, or another doubt; inactive = no such curve, though single readings can be large or run the other way; also: series mostly up to about 120 µM
Target sequence (P11473 whole entry, looked up): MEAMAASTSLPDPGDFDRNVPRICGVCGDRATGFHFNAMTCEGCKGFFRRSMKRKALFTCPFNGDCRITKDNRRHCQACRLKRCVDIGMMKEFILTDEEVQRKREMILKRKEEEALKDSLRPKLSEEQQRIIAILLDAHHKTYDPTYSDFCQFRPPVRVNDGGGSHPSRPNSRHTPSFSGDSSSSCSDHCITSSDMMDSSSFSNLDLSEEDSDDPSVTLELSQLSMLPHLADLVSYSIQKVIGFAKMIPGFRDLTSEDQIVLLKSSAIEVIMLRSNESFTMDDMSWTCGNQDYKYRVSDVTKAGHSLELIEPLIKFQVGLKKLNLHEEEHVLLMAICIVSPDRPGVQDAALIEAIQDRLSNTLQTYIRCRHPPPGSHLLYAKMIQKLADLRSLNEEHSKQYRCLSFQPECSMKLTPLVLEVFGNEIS
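VDR–SRC2-3 interaction, FP format. Cmpds 23 nl via pintool, brief spin, 2 h ambient incubation.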
* marks the source's active call; other numbers are inactive results; ? = inconclusive; & = joins results of further samples. % is scaled to controls: 0 for no effect and ±100 for the full control effect; potency is read from the fitted curve at half-maximal effect. Some of the compounds tested; the hit share may differ from the screen's.

Structure	VDR inh
CCOC(=O)C1CN(C)CCC1=O (stereo not given)	4%
Cc1cc(OC(C)C(=O)N[C@H](C(=O)O)c2ccccc2)c2c3c(c(=O)oc2c1)CCC3 (stereo not given in full)	-24%
O=C(COC(=O)c1ccccc1)Nc1ccc(Cl)cc1C(=O)c1ccccc1	0%
O=C1NC(=O)N(c2ccccc2F)C(=O)/C1=C/c1ccc(Oc2ccc([N+](=O)[O-])cn2)cc1	79µM*
O=C1c2ccccc2-c2cccc3cccc1c23	0%&10%
Cc1ccsc1C(=O)C1CCCN(Cc2cccc(-n3cccn3)c2)C1 (stereo not given)	-3%
O=C1c2ccccc2C2(c3ccc(Cl)cc3)NCCN12 (stereo not given)	6%
Cc1ccc2c(c1)C1CN(C)CCC1N2S(=O)(=O)c1ccccc1 (stereo not given)	-21%
N#Cc1nn(-c2c(Cl)cc(C(F)(F)F)cc2Cl)c(N)c1S(=O)C(F)(F)F (stereo not given)	?
CN1C(=O)C(Cc2ccsc2)C(=O)N(C)C1=O	?
CC(=NCc1ccc2c(c1)OCO2)c1c(O)[nH]c(=O)[nH]c1=O	-3%
CCc1ccc(CNCCc2ccccc2F)cc1	-5%
CC1([N+](=O)[O-])COP(=O)(NC2CC2)OC1 (stereo not given)	-24%
CCCCn1c(N)c(C(=O)NCCN2CCOCC2)c2nc3ccccc3nc21	-7%
COc1ccc(C(=O)CC2(CC(=O)c3ccc(OC)cc3)C(=O)N(C)C(=O)N(C)C2=O)cc1	3%
O=C1NC(=O)N(Cc2ccc(F)cc2)C(=O)/C1=C\C=C\c1ccco1	?
COP(=O)(NS(=O)(=O)c1ccccc1)OC	?
C[C@]12CCC3C(CC[C@]4(O)C[C@@H](O)CC[C@]34C=O)[C@@]1(O)CC[C@@H]2C1=CC(=O)OC1 (stereo not given in full)	2%
Nc1ccc(-c2ccc(N)c(N)c2)cc1N	8%
Cn1c(C(=O)N2CCC(C(=O)N3CCC4(CC3)OCCO4)CC2)cc2sccc21	4%
O=C(Oc1ccccc1)N1CCC2(CCCN(Cc3ccccc3)C2)CC1	?
c1ccc2c(c1)OCC(C1=NCCN1)O2 (stereo not given)	0%&5%&4%
c1ccc(-n2ccnc2)cc1	-16%
Cc1cc(OC(=O)CCNC(=O)OC(C)(C)C)c2c3c(c(=O)oc2c1)CCC3	11%
C=CCN1C(=O)NC(=O)/C(=C/C=C/c2ccccc2)C1=O	?

For reference, 2 of the compounds above.
Structure	VDR inh
Cc1cc(OC(=O)CCNC(=O)OC(C)(C)C)c2c3c(c(=O)oc2c1)CCC3	11%
C=CCN1C(=O)NC(=O)/C(=C/C=C/c2ccccc2)C1=O	?

New compounds follow
Structure	VDR inh
Cc1ccc(-n2c(C)nc3ccccc3c2=O)cc1C	-9%
COc1ccc(-c2cc(C(F)(F)F)n3nc(C(=O)N4CCC5(CC4)OCCO5)cc3n2)cc1OC	-9%
CCC(=NCCc1c[nH]c2ccccc12)c1c(O)n(-c2ccc(C)cc2)c(=O)[nH]c1=O	6%
c1cncc(CNC2=NCCCCC2)c1	7%
O=C(O)Cn1cc(/C=C2\C(=O)NC(=O)N(c3ccc(Cl)cc3)C2=O)c2ccccc21	?
O=C(CCCN1CCC(n2c(=O)[nH]c3ccccc32)CC1)c1ccc(F)cc1	-4%&-4%
CCOC(=O)c1cccc(NC(=O)c2c(O)[nH]c(=O)[nH]c2=O)c1	-20%
C=C1C(=O)OC2CC3(C)OC3CCC(C)=CC(OC(C)=O)C12 (stereo not given)	71µM*
CN1CC=C(/C=C/c2ccc(-c3ccccc3)cc2)CC1	-18%
Cc1sc2ncn(CC(=O)NCCCC(=O)N3CCC4(CC3)OCCO4)c(=O)c2c1C	3%
COc1cc2c(cc1O)[C@H]1Cc3ccc(OC)c(O)c3CN1CC2	-11%
CCC(C(=O)N1CCC2(CC1)OCCO2)n1c2ccccc2c2nc(=O)cc(C)n21 (stereo not given)	-7%
N#Cc1c(Br)n(C2OC(CO)C(O)C2O)c2ncnc(N)c12 (stereo not given)	-22%
CCc1ccccc1N1C(=O)/C(=C/c2ccc(N3CCN(C)CC3)o2)C(=O)NC1=S	-5%
C[C@]12CCC(=O)C[C@@H]1CC[C@@H]1[C@@H]2CC[C@]2(C)[C@@H](O)CC[C@@H]12	?
CNC1=CN(O)C(c2ccccc2)=c2cc(Cl)ccc2=N1	?
CN1OCC2Cn3c(nc4ccccc43)C21 (stereo not given)	-10%
O=c1c2ccccc2nc(-c2cccs2)n1-c1cnccn1	6%
CC1CC(OC(=O)c2ccccc2)CC(C)N1C (stereo not given)	-3%
Cc1[nH]n(-c2ccccc2)c(=O)c1C(c1ccc([N+](=O)[O-])cc1)c1c(C)[nH]n(-c2ccccc2)c1=O	?
Clc1cnc(Oc2ccc(Oc3ncc(Cl)cc3Cl)cc2)c(Cl)c1	3%&-5%
O=C(COc1ccc2ccccc2c1)N1CCN(C2CCN(Cc3ccccc3)CC2)CC1	-7%
Cc1ccc(CN2CC3CC(C2)c2cccc(=O)n2C3)cc1 (stereo not given)	0%
CCCCOC(=O)c1ccccc1C(=O)OCCCC	-4%&8%
Cc1oc(-c2ccccc2Cl)nc1CN1C(=O)CN=C(c2ccccc2)c2ccccc21	-23%
Cc1sc2ccccc2c1CC1=NCCN1	2%&-9%&5%
CCCCc1ccc(C(=O)O)nc1	4%&2%&6%&-8%
CC(=O)CC(c1ccccc1)c1c(O)c2ccc(O)cc2oc1=O (stereo not given)	6%
CN1C(=O)C(=Cc2cn(CC(=O)N3CCCCC3)c3ccccc23)C(=O)N(C)C1=O	-11%
CCCCCCCn1c(=O)c(C(=O)Nc2cnccn2)c(O)c2ccccc21	4%
CCC1C(C)=NN=C(c2ccc(OC)c(OC)c2)c2cc(OC)c(OC)cc21 (stereo not given)	-2%&0%
CC(C)N1CCN(c2ccc(O)cc2)CC1	3%
C#CC1(OC(=O)c2ccccc2)CC(C)N(C)CC1C (stereo not given)	-1%
COc1ccc(OCC(=O)Nc2ccc(Cl)cc2C(=O)c2ccccc2)cc1	17%
CN(C)S(=O)(=O)c1cc(NC(=O)COC(=O)Cc2ccccc2)ccc1Cl	?
CCC(=O)N1CC(=O)Nc2ccc(Br)cc2C1c1ccccc1 (stereo not given)	10%
Cc1ccc(NC(=O)c2cn(CCC#N)nc2-c2ccc3c(c2)OCCO3)c([N+](=O)[O-])c1	-4%
Cc1ccccc1-n1c(/C=C/c2ccccc2F)nc2ccccc2c1=O	-6%
O=C(O)[C@@H]1CSC(c2cccnc2)N1 (stereo not given in full)	-9%
O=c1[nH]c(=S)n(Cc2ccc(F)cc2)c(O)c1/C=N/N1CCCCC1	-14%
COc1nc2ccccc2c(=O)n1-c1ccc(Cl)cc1	16%
CC1(C)CC[C@]2(C)CC[C@]3(C)C4C[C@@H]5OO[C@@]6(O5)C(CCCC6(C)C)[C@]4(C)CC[C@@]3(C)C2C1 (stereo not given in full)	-8%
CN1Cc2cnnn2-c2ccccc2C1C#N (stereo not given)	2%
O=C1NC(=O)N(CCNc2ncc(C(F)(F)F)cc2Cl)C(=O)C1/C=N/OCc1c(F)cccc1Cl (stereo not given)	1%
O=C(N=Nc1c(O)[nH]c(=O)[nH]c1=O)C1COc2cc3ccccc3cc2O1 (stereo not given)	?
N=c1c[n+](C2CCCCC2)[n-]o1	-8%
C[C@]12C[C@@H](O)[C@H](O)CC1=CCC1C2CC[C@]2(C)C(=O)CCC12 (stereo not given in full)	11%
CC1=CC2OC3CC4OC(=O)C=CC=CC(C(C)O)OCC(O)C(C)CC(=O)OCC2(CC1O)C4(C)C31CO1 (stereo not given)	8%
O=P(Oc1ccc(-c2ccccc2)cc1)(N1CC1)N1CC1	-6%
Cc1ccc(N=C(N(C)C)P(=O)(N(C)C)N(C)C)cc1	7%

Rewritten with each value named: part of the list above.
CCCCCCCn1c(=O)c(C(=O)Nc2cnccn2)c(O)c2ccccc21
  VDR inh: 4%

CCC1C(C)=NN=C(c2ccc(OC)c(OC)c2)c2cc(OC)c(OC)cc21 (stereo not given)
  VDR inh: -2%&0%

CC(C)N1CCN(c2ccc(O)cc2)CC1
  VDR inh: 3%

C#CC1(OC(=O)c2ccccc2)CC(C)N(C)CC1C (stereo not given)
  VDR inh: -1%

New compounds follow:
Structure	VDR inh
COC(=O)C1=C(c2ccc(OC(F)(F)F)cc2)C[C@@H]2CC[C@H]1N2C(=O)NCCOc1ccccc1Cl	-24%
Fc1ccc(CN2CCN(c3ccc(Cl)cc3)CC2)cc1	7%
O=C(O)c1ccccc1-c1ccc(C=C2C(=O)N(c3ccccc3)C(=S)N(c3ccccc3)C2=O)o1	16µM*
O=C1NC(=O)C(CCc2ccncc2)(Cc2ccc3c(c2)OCO3)C(=O)N1CCc1ccccc1 (stereo not given)	24%
Cc1ccccc1CCNCc1ccc(Br)cc1	6%
COc1ccc(-c2nc3ccccc3n2OC(=O)N(C)C)cc1	-15%
N=C1c2ccccc2CN1NC(=O)c1ccco1	-10%
O=C(COc1ccc(S(=O)(=O)N2CCCCC2)cc1)N1CCN(Cc2ccccc2)CC1	-14%
Cc1nc2ccccc2c(=O)n1-c1ccc(Cl)cc1[N+](=O)[O-]	9%
C[C@@H](N)Cn1ccc2cc(F)c(Cl)cc21	-2%
Cc1cc(C=C2C(=O)NC(=S)NC2=O)c(C)n1C1CCCC1	-21%
O=C(c1csnn1)N1CCC[C@@]2(CCN(Cc3ccncc3)C2)C1	?
COc1ccc(CC2(CCc3ccncc3)C(=O)NC(=O)NC2=O)c(OC)c1	13%
O=C(O)CCC(=O)NCCC1=c2ccccc2=N/C1=C\c1c(O)n(Cc2ccc(F)cc2)c(=S)[nH]c1=O	20µM*
CS(=O)(=O)N1CCC2(CCCN(Cc3ccncc3)C2)CC1	-20%
O=[N+]([O-])c1cccc(O)c1	13%
Cc1cccc(Cn2cccc(C(=O)Nc3ccc4c(c3)OCCO4)c2=O)c1	10%
COc1ccc(NC(=S)NC(NC(=O)CF)C(Cl)(Cl)Cl)cc1[N+](=O)[O-] (stereo not given)	-5%
COC(=O)C1=C(c2cccc(C#N)c2)C[C@@H]2CC[C@H]1N2C(=O)NCCO	-14%
CN1CCN(Cc2ccccc2Sc2ccccc2)CC1	-10%
CC(=O)c1ccc2c(c1)C1C(Cl)C(Sc3ccccc3[N+](=O)[O-])CC1C(c1ccccc1)N2 (stereo not given)	?
OCCN(CC#CC(O)(c1ccccc1)C1CCCC1)CCO (stereo not given)	6%
COc1ccc(C2=CC(c3ccc4c(c3)OCO4)c3c(c4ccccc4oc3=O)O2)cc1OC (stereo not given)	-10%
COC(=O)[C@@H]1C[C@]2(C(=O)O)c3ccccc3N(OOSc3ccccc3)[C@@H]2N1C(=O)OC	-8%
Cn1c(O)c(C=NCc2cccs2)c(=O)n(C)c1=O	18%
CC(C)(C)n1cc(C(=O)c2ccccc2OCCCF)cn1	-20%
COC(=O)C1=C(c2ccc(S(C)(=O)=O)cc2)C[C@@H]2CC[C@H]1N2C(=O)NCc1ccco1	-1%
O=C(c1ccco1)c1cn(Cc2ccc(Cl)cc2)c2ccccc12	19%
CC(=O)NC(C)Cc1ccccc1 (stereo not given)	-1%
COC(=O)C1=C(c2ccc(OCc3ccccc3)cc2)C[C@@H]2CC[C@H]1N2C(=O)NCc1cccc(OC)c1	-24%
C=CC(C)C(C(=O)c1ccccc1)N(C)C (stereo not given)	0%
O=C(CF)NC(Nc1cccc2cccnc12)C(Cl)(Cl)Cl (stereo not given)	16%
O=c1[nH]c(=S)n(Cc2ccc(F)cc2)c(O)c1C=NCc1cccnc1	-13%
c1ccc(C2NCCc3[nH]cnc32)cc1 (stereo not given)	-18%
O=C(N/N=C/c1c(O)n(Cc2ccc(F)cc2)c(=S)[nH]c1=O)c1ccncc1	-28%
COc1ccc(NC(=O)CN2C(=O)C(C)N=C(c3ccccc3F)c3cc(Cl)ccc32)c(OC)c1 (stereo not given)	2%
CN1c2ccccc2C(NCCCCCCC(=O)O)c2ccc(Cl)cc2S1(=O)=O (stereo not given)	1%
N[C@@H](CCCCP(=O)(O)O)C(=O)O	2%
COc1ccc(CCn2c(O)c(C=NCc3cccnc3)c(=O)[nH]c2=O)cc1OC	-12%
CC1CCN(C(=O)CCl)CC1	-9%
CCCN(CCC)[C@H]1CCc2c(F)ccc(O)c2C1	-2%
CCCCNc1ccncc1S(=O)(=O)NC(=O)NC(C)C	-5%
O=C(COc1ccc(Br)cc1)N1CCN(Cc2ccc3c(c2)OCO3)CC1	-1%
CCC(=O)c1c(O)n(C2CCCCCC2)c(=O)[nH]c1=O	16%
CCCC(CCC)C(=O)OC[N+](C)(C)CCOC(=O)C(O)(c1ccccc1)C1CCCC1 (stereo not given)	-9%
O=C1NC(=O)C(CCc2ccncc2)(CCc2ccncc2)C(=O)N1CCc1ccccc1	2%

Bioassay records deposited in PubChem BioAssay by National Center for Advancing Translational Sciences (NCATS).
